Assay outcomes from PubChem BioAssay.
ATXN2 expr inh: ATXN2 expression inhibition; HEK-293 ATXN2-luciferase reporter, luminescence, 24 h; Potency, µM (top dose mostly 57 µM), inactives show at the top dose activity change, negative = inhibition, most hits filed as inhibitors; 360,000 compounds, 0.72% hits; AID 1745845; also: % is scaled to controls: 0 for no effect and ±100 for the full control effect; nearly all actives have a fitted effect of over 55% in size
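qHTS (up to 57 uM final) was run with 24 h compound exposure of reporter cells at 37 °C. Each well was multiplexed: SteadyGlo luminescence measured ATXN2-luciferase expression after a fluorogenic Gly-Phe-AFC viability readout (25 uM final).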
Nrf2 ARE act: Nrf2 pathway activation | AID 624171 | 410,000 compounds, 0.31% hits | Potency, µM (series often up to 46.1 µM), for the others: at the top dose activation, actives largely listed as activators | AREc32 ARE-luciferase reporter (MCF7-derived line), luminescence, 24 h; also: % of control where 0% means no effect; nearly all actives have a fitted effect of over 65% in size
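For detection, Steady-Glo was added and plates sat 30 min at RT; before that, AREc32_Fluc cells grown overnight in OPTI-MEM/5% FBS had been treated with 23 nL compound for 24 hr at 37 deg C.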
* = called active by the depositor; & = joins results of further samples; [ ] = another dose, or the depositor's remark. Calls follow the shape of the dose curve; as a rule, active = well fitted curve in the direction sought with a large enough effect; inconclusive = small, poorly fitted or top-dose-only effect, or another doubt; inactive = no such curve, though single readings can be large; an effect the other way counts as inactive or inconclusive. Potency is read from the fitted curve at half-maximal effect. Some of the compounds tested, and most or all hits are left out here.

Results follow in this order: ATXN2 expr inh	Nrf2 ARE act
> CCCC(=O)Nc1ccc(Cl)c(-c2nc3ncccc3o2)c1
→ 3%	0.0%
> Cn1ncc(Br)c1C(=O)O
→ 5%	0.2%
> O=C(O)C1=C[C@@H](O)[C@@H](O)[C@H](O)C1
→ 2%	0.3%
> COC(=O)Nc1sc(C)nc1-c1ccccc1
→ 3%	2.5%
> CCOC(=O)C1=C(C)NC(C)=C(C(=O)OC)C1c1cccc(Cl)c1Cl (stereo not given)
→ -26%&-3%	6.0%
> CNC(=O)Oc1ccc2c(c1)[C@]1(C)CCN(C)[C@@H]1N2C
→ 1%&0%&-12%	-0.4%&3.4%
> CCNc1c2c3c(cccc3n(C)c1=O)C(=O)c1ccccc1-2
→ -3%	-0.6%
> O=C1C=CC(=O)c2c(O)c(N3CCN(CCO)CC3)c(Cl)c(O)c21
→ 5.6µM*	-3.5%
> CCNC(=O)C1CC(=O)N(CC)C(=Nc2cc(Cl)c(O)c(Cl)c2)S1 (stereo not given)
→ 63%[activator]	0.1%
> Cc1nnc(SCC2=C(C(=O)O)N3C(=O)[C@@H](NC(=O)Cn4cnnn4)[C@H]3SC2)s1
→ -10%&1%&9%	-0.4%&-0.7%
> Cc1sc2ncnc(SCC(=O)N3CCN(C(=O)c4ccco4)CC3)c2c1C
→ -16%	2.3%
> Cn1c2nc(=O)[nH]c(=O)c-2cc2ccccc21
→ -2%	0.1%

Three entries out of the list, ordered by count of non-hydrogen atoms, rising.
Results follow in this order: ATXN2 expr inh	Nrf2 ARE act
> CCNc1c2c3c(cccc3n(C)c1=O)C(=O)c1ccccc1-2
→ -3%	-0.6%
> CCNC(=O)C1CC(=O)N(CC)C(=Nc2cc(Cl)c(O)c(Cl)c2)S1 (stereo not given)
→ 63%[activator]	0.1%
> CCOC(=O)C1=C(C)NC(C)=C(C(=O)OC)C1c1cccc(Cl)c1Cl (stereo not given)
→ -26%&-3%	6.0%

Some of the entries so far, comma-delimited:
compound,ATXN2 expr inh,Nrf2 ARE act
CCNC(=O)C1CC(=O)N(CC)C(=Nc2cc(Cl)c(O)c(Cl)c2)S1 (stereo not given),63%[activator],0.1%
Cc1nnc(SCC2=C(C(=O)O)N3C(=O)[C@@H](NC(=O)Cn4cnnn4)[C@H]3SC2)s1,-10%&1%&9%,-0.4%&-0.7%
Cc1sc2ncnc(SCC(=O)N3CCN(C(=O)c4ccco4)CC3)c2c1C,-16%,2.3%
Cn1c2nc(=O)[nH]c(=O)c-2cc2ccccc21,-2%,0.1%
